Source: PubChem (Broad Institute)
Vaccinia inh = blocks a specific stage of Vaccinia orthopoxvirus infection, primary screen, cell-based, single point. Vaccinia-infected cells, mCherry/Venus stage reporter fluorescence; active compounds read low; some inactives read as strong as hits. activity change (mCherry), % (no concentration beside the values). hit rate 0.01% among 89,000. AID 1053133, 2014;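 active = mCherry past -33% and 40 or more points under the early reporter, replicates agreeing; inconclusive = past -33% without that gap or agreement; tested in A549 cells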;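 also: scaled between vehicle wells and reference inhibitor wells; 23 nL library stock went into each well; one replicate is shown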
Vaccinia inh Venus = recorded beside Vaccinia inh, whose call it bears; activity change (Venus), %; measured here: Venus reporter, other viral stage;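 negative = less Venus signal; first of two replicates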
Numbers without * were called inactive; ? = inconclusive; . = no result given.

Fields: Vaccinia inh | Vaccinia inh Venus
COc1cccc(C#Cc2ccc([C@H]3[C@H](CO)N4C(=O)CN(C(=O)C5CC5)C[C@@H]34)cc2)c1
    19 | 6
C[C@@H]1CCCCO[C@H](CN(C)S(=O)(=O)c2ccccc2)[C@@H](C)CN([C@H](C)CO)C(=O)c2cc(NC(=O)CCC(F)(F)F)ccc2O1
    27 | 4
C[C@@H]1CCCCO[C@H](CN(C)S(=O)(=O)c2cccs2)[C@@H](C)CN([C@@H](C)CO)C(=O)c2cc(NC(=O)Nc3ccc(C(F)(F)F)cc3)ccc2O1
    1 | -4
C[C@H]1CN([C@@H](C)CO)C(=O)Cc2cc(NC(=O)NC3CCCCC3)ccc2O[C@H]1CN(C)C(=O)Nc1ccccc1
    14 | 13
COc1ccc(CNC(=O)C[C@H]2C=C[C@@H](NC(=O)c3ccc4c(c3)OCO4)[C@H](CO)O2)cc1
    1 | 7
C[C@@H]1CN([C@@H](C)CO)C(=O)c2cc(NC(=O)CCC(F)(F)F)ccc2O[C@@H](C)CCCCO[C@H]1CN(C)Cc1ccc(C(=O)O)cc1
    2 | 2
C[C@@H]1CN([C@@H](C)CO)C(=O)c2cccc(NC(=O)C3CC3)c2O[C@H]1CN(C)S(=O)(=O)c1ccc(F)cc1
    7 | 8
CO[C@@H](CN(C)C(=O)C1CC1)[C@@H](C)CN(C(=O)Nc1ccc(C(F)(F)F)cc1)[C@H](C)CO
    -12 | -7
C[C@H](CO)N1C[C@H](C)[C@H](CN(C)C(=O)Nc2ccc(C(F)(F)F)cc2)Oc2c(NS(=O)(=O)c3ccc(F)cc3)cccc2C1=O
    ? | .
Cc1noc(C)c1NC(=O)N(C)C[C@@H]1Oc2ccc(NC(=O)Nc3cccc4ccccc34)cc2CC(=O)N([C@H](C)CO)C[C@@H]1C
    17 | 16

(continued)
Fields: Vaccinia inh | Vaccinia inh Venus
C[C@H](CO)N1C[C@H](C)[C@@H](CN(C)C(=O)c2cccc(F)c2)Oc2ncc(-c3cncnc3)cc2C1=O
    18 | 3
OC[C@@H]1[C@@H](c2ccc(C#CC3(O)CCCC3)cc2)[C@H]2CN(Cc3cccnc3)CCCCN12
    5 | 4
CN(C[C@H]1N[C@@H](CO)[C@H]1c1ccc(-c2cccnc2)cc1)C(=O)CC1CC1
    -3 | 2
CCCNC(=O)N1[C@@H](CO)[C@@H](c2ccccc2)[C@@H]1CNC(C)=O
    32 | 28
COc1ccccc1-c1cn(CC[C@H]2CC[C@@H](NC(=O)C3CC3)[C@@H](CO)O2)nn1
    -2 | 4
CCC(=O)Nc1ccc2c(c1)OC[C@@H](C)N(C(=O)c1ccccn1)C[C@H](C)[C@H](OC)CN(C)C2=O
    0 | 5
O=C(C[C@@H]1C=C[C@@H](NC(=O)Nc2ccc3c(c2)OCO3)[C@H](CO)O1)NCc1ccccc1
    7 | 9
C[C@@H]1CN([C@@H](C)CO)C(=O)c2cc(-c3cccnc3)cnc2O[C@@H]1CN(C)C(=O)Nc1ccc2c(c1)OCO2
    2 | 7
O=C(Cc1cccnc1)N1CC(=O)N2[C@H](C1)[C@H](c1ccc(C#CC3CCCCC3)cc1)[C@@H]2CO
    -29 | -18
CCCC#Cc1cnc2c(c1)C(=O)N([C@H](C)CO)C[C@H](C)[C@H](CN(C)Cc1ccncc1)O2
    28 | 7

The list goes on:
Fields: Vaccinia inh | Vaccinia inh Venus
Cc1ccc(S(=O)(=O)N2C[C@@H](O)COC[C@H]3O[C@H](CC(=O)N[C@@H]4CCN(Cc5ccccc5)C4)CC[C@@H]32)cc1
    -30 | -15
C[C@@H]1CN([C@@H](C)CO)S(=O)(=O)c2ccc(C3=CCCC3)cc2O[C@H]1CN(C)C(=O)c1ccccn1
    7 | -4
COc1ccc(-c2ccc3n(c2=O)C[C@@H]2[C@@H](CO)[C@H](C(=O)N(C)C)[C@H]3N2Cc2cncnc2)cc1
    13 | 6
COc1ccc2c3c(n(C)c2c1)[C@H](CO)NCC31CN(CC2CCOCC2)C1
    -1 | -2
C[C@@H]1CN([C@@H](C)CO)C(=O)c2cc(C#Cc3ccccn3)cnc2O[C@@H]1CN(C)C(=O)CCN1CCCCC1
    8 | 9
C[C@H]1CN([C@@H](C)CO)C(=O)Cc2cc(NS(=O)(=O)c3ccccc3)ccc2O[C@@H]1CN(C)Cc1ccc(Cl)c(Cl)c1
    ? | .
COc1ccc(CNC(=O)C[C@H]2C[C@H]3c4cc(NS(=O)(=O)c5ccc(F)cc5)ccc4O[C@H]3[C@H](CO)O2)cc1
    -4 | -6
O=C(C[C@H]1CC[C@H]2[C@@H](COC[C@@H](O)CN2C(=O)c2ccccc2)O1)Nc1ccccc1
    8 | 5
C[C@H](CO)N1C[C@H](C)[C@@H](CN(C)C(=O)CN2CCOCC2)Oc2ncc(C#C[C@@H](C)O)cc2C1=O
    12 | 5
COCC#Cc1cnc2c(c1)C(=O)N([C@H](C)CO)C[C@H](C)[C@@H](CN(C)C(=O)C1CC1)O2
    20 | 4

Carrying on.
Fields: Vaccinia inh | Vaccinia inh Venus
CCCN(C)C[C@@H]1Oc2cc(C#CCC(C)C)ccc2S(=O)(=O)N([C@@H](C)CO)C[C@H]1C
    -6 | 2
C[C@H](CO)N1C[C@H](C)[C@H](CN(C)C)Oc2ccc(NC(=O)CCC(F)(F)F)cc2C1=O
    2 | -1
O=C(Nc1ccccc1F)N1C[C@H]2[C@@H](c3ccccc31)[C@H](CO)N2C(=O)c1ccccc1F
    8 | 2
Cc1noc(C)c1NC(=O)Nc1ccc2c(c1)CC(=O)N([C@@H](C)CO)C[C@H](C)[C@@H](CN(C)Cc1ccc(-c3ccccc3)cc1)O2
    2 | 2
CN(C)c1ccc2c(c1)[C@H]1C[C@H](CC(=O)NCCN3CCCCC3)O[C@H](CO)[C@H]1O2
    -10 | -10
COc1ccc2c3c(n(C)c2c1)[C@H](CO)N(C(=O)Nc1ccc(F)cc1)CC31CCN(S(=O)(=O)c2cccc(C)c2)CC1
    -25 | -23
CO[C@H]1CN(C)C(=O)c2ccc(NC(=O)C3CC3)cc2OC[C@H](C)N(C(=O)Cc2ccccn2)C[C@H]1C
    14 | 12
Cc1noc(C)c1NC(=O)Nc1cccc2c1O[C@@H](CN(C)S(=O)(=O)c1cccs1)[C@@H](C)CN([C@H](C)CO)C2=O
    8 | 3
COc1cccc(NC(=O)N2CC(=O)N3[C@H](CO)[C@@H](c4ccc(C5=CCCC5)cc4)[C@@H]3C2)c1
    ? | .
COc1ccc(NC(=O)Nc2ccc3c(c2)C(=O)N([C@H](C)CO)C[C@@H](C)[C@H](CN(C)C(=O)Nc2ccc(C(F)(F)F)cc2)OCCCC[C@@H](C)O3)cc1
    -17 | -28

Part of the list above, as labelled records:
CCCN(C)C[C@@H]1Oc2cc(C#CCC(C)C)ccc2S(=O)(=O)N([C@@H](C)CO)C[C@H]1C
  Vaccinia inh = -6; Vaccinia inh Venus = 2

C[C@H](CO)N1C[C@H](C)[C@H](CN(C)C)Oc2ccc(NC(=O)CCC(F)(F)F)cc2C1=O
  Vaccinia inh = 2; Vaccinia inh Venus = -1

O=C(Nc1ccccc1F)N1C[C@H]2[C@@H](c3ccccc31)[C@H](CO)N2C(=O)c1ccccc1F
  Vaccinia inh = 8; Vaccinia inh Venus = 2

Cc1noc(C)c1NC(=O)Nc1ccc2c(c1)CC(=O)N([C@@H](C)CO)C[C@H](C)[C@@H](CN(C)Cc1ccc(-c3ccccc3)cc1)O2
  Vaccinia inh = 2; Vaccinia inh Venus = 2

(cont.)
Fields: Vaccinia inh | Vaccinia inh Venus
C[C@H](CO)N1C[C@H](C)[C@@H](CN(C)S(=O)(=O)c2ccccc2)Oc2ccc(NC(=O)C3CC3)cc2CC1=O
    25 | 6
CO[C@@H]1CN(C)C(=O)c2ccc(NC(=O)c3cccc(Oc4ccccc4)c3)cc2OC[C@@H](C)NC[C@H]1C
    ? | .
C[C@@H]1CN([C@@H](C)CO)C(=O)c2cc(NC(=O)c3ccncc3)ccc2O[C@H]1CN(C)Cc1ccc(C(=O)O)cc1
    5 | -6
COc1ccc(S(=O)(=O)N2CCCCN3[C@H](CO)[C@@H](c4ccc(-c5cccnc5)cc4)[C@H]3C2)cc1
    -4 | -11
CC(C)NC(=O)N(C)C[C@H]1OCCCC[C@H](C)Oc2ccc(NC(=O)NC3CCCCC3)cc2C(=O)N([C@@H](C)CO)C[C@H]1C
    -12 | 5
CCCC#Cc1ccc2c(c1)O[C@@H](CN(C)C(=O)Nc1ccccc1F)[C@@H](C)CN([C@H](C)CO)S2(=O)=O
    ? | .
C[C@H](CO)N1C[C@H](C)[C@H](CN(C)C(=O)C2CCCCC2)OCCCC[C@H](C)Oc2ccc(NC(=O)Nc3cccc4ccccc34)cc2C1=O
    -3 | -1
CC(=O)Nc1ccc2c(c1)C(=O)N(C)[C@H]1CC[C@H](CC(=O)Nc3cccc(Cl)c3)O[C@@H]1CO2
    10 | 12
Cc1ccc(S(=O)(=O)Nc2cccc3c2O[C@@H](CN(C)C(=O)Nc2ccc4c(c2)OCO4)[C@@H](C)CN([C@H](C)CO)C3=O)cc1
    0 | 4
N#C[C@H]1[C@H](c2ccccc2-c2ccc(F)cc2)[C@H](CO)N1C(=O)NC1CCCCC1
    -8 | -4

(listing goes on)
Fields: Vaccinia inh | Vaccinia inh Venus
CCCNC(=O)N[C@@H]1CC[C@@H](CCn2cc(C3CCCCC3)nn2)O[C@@H]1CO
    7 | 12
Cc1noc(C)c1NC(=O)Nc1ccc2c(c1)CC(=O)N([C@H](C)CO)C[C@@H](C)[C@H](CN(C)Cc1ccc(C(=O)O)cc1)O2
    1 | 11
Cc1noc(C)c1NC(=O)N(C)C[C@H]1Oc2ccc(NC(=O)Cc3ccccc3)cc2C(=O)N([C@H](C)CO)C[C@H]1C
    5 | 1
C[C@@H]1CN([C@@H](C)CO)C(=O)c2cc(NS(=O)(=O)c3cccs3)ccc2O[C@@H]1CN(C)S(=O)(=O)c1ccc(F)cc1
    -8 | -12
CC(C)C#Cc1ccc([C@H]2[C@H]3CN(C(=O)Cc4ccccc4)CC(=O)N3[C@H]2CO)cc1
    4 | 2
COc1ccc2c3c([nH]c2c1)[C@@H](CO)N(C(=O)C1CCCC1)CC31CN(Cc2nccs2)C1
    9 | 1
C[C@@H]1CN([C@H](C)CO)C(=O)CCCn2cc(nn2)CO[C@@H]1CN(C)C(=O)Nc1ccc(-c2cccs2)cc1
    6 | 2
CO[C@H]1CN(C)C(=O)c2ccc(NC(C)=O)cc2OC[C@@H](C)N(Cc2ccccn2)C[C@H]1C
    15 | 3
C[C@H](CO)N1C[C@H](C)[C@@H](CN(C)S(=O)(=O)c2ccc(F)cc2)Oc2ccc(NS(=O)(=O)c3cn(C)cn3)cc2CC1=O
    8 | 0
C[C@@H]1CN([C@@H](C)CO)C(=O)c2cc(C#Cc3ccccn3)cnc2O[C@H]1CN(C)CC1CCOCC1
    14 | 15

Additional records:
Fields: Vaccinia inh | Vaccinia inh Venus
CN(C)CC(=O)N[C@@H]1CC[C@@H](CCNC(=O)Nc2ccc(F)cc2)O[C@@H]1CO
    -14 | -14
C[C@@H]1CN([C@@H](C)CO)C(=O)c2cc(C#CC3CCCC3)cnc2O[C@H]1CN(C)Cc1ccncc1
    -7 | -17
C/C=C/c1cnc2c(c1)C(=O)N([C@H](C)CO)C[C@H](C)[C@H](CN(C)Cc1ccccc1)O2
    20 | 14
CO[C@H]1CN(C)C(=O)c2cc(NC(=O)C3CCC3)ccc2OC[C@@H](C)N(Cc2nccs2)C[C@H]1C
    -5 | 1
CC(C)NC(=O)N(C)C[C@H]1Oc2ccc(NC(=O)Cn3cnnn3)cc2CC(=O)N([C@@H](C)CO)C[C@@H]1C
    13 | 4
O=C(Nc1ccc(F)cc1)N1CC(=O)N2[C@H](CO)[C@H](c3ccc(-c4ccccc4)cc3)[C@@H]2C1
    ? | .
C[C@@H]1CCCCO[C@@H](CN(C)C(=O)Nc2ccc(C(F)(F)F)cc2)[C@H](C)CN([C@@H](C)CO)C(=O)c2cc(NS(=O)(=O)c3cccs3)ccc2O1
    1 | 3
C[C@H](CO)N1C[C@H](C)[C@@H](CN(C)S(C)(=O)=O)Oc2ncc(C#Cc3ccc(F)cc3)cc2C1=O
    3 | 2
COc1ccc2c3c(n(C)c2c1)[C@@H](CO)N(C(=O)Cc1ccccn1)CC31CN(CC2CCCC2)C1
    -10 | -11
CNC[C@@H]1OCCCC[C@H](C)Oc2ccc(NS(=O)(=O)c3ccc(C)cc3)cc2C(=O)N([C@@H](C)CO)C[C@H]1C
    -4 | 11

Other compounds follow:
Fields: Vaccinia inh | Vaccinia inh Venus
C[C@@H]1CN([C@@H](C)CO)C(=O)c2cccc(N(C)C)c2O[C@H]1CN(C)C(=O)Nc1ccccc1
    8 | 2
COc1ccc(S(=O)(=O)N[C@@H]2CC[C@H](CCNC(=O)c3ccccc3F)O[C@@H]2CO)cc1
    -7 | 0
CO[C@@H]1CN(C)C(=O)c2cc(NC(C)=O)ccc2OC[C@H](C)N(CC2CC2)C[C@@H]1C
    5 | 5
C[C@@H]1CCCCO[C@@H](CN(C)C(=O)Cc2ccccc2)[C@H](C)CN([C@H](C)CO)C(=O)c2cc(NC(=O)Nc3ccccc3)ccc2O1
    -23 | -14
COCC(=O)N(C)C[C@@H]1Oc2ncc(C#CC3(O)CCCC3)cc2C(=O)N([C@H](C)CO)C[C@H]1C
    12 | 8
COc1ccc(S(=O)(=O)Nc2ccc3c(c2)C(=O)N([C@H](C)CO)C[C@@H](C)[C@@H](CN(C)C(=O)Nc2ccc(F)cc2)O3)cc1
    4 | -1
O=C(C[C@@H]1C=C[C@@H](NC(=O)c2ccccc2)[C@@H](CO)O1)NCc1ccncn1
    -3 | -2
CCC(=O)Nc1ccc2c(c1)OC[C@H](C)N(Cc1cccnc1)C[C@@H](C)[C@H](OC)CN(C)C2=O
    -6 | -1
C[C@H]1CN([C@@H](C)CO)C(=O)c2cc(C#CCc3ccccc3)cnc2O[C@H]1CN(C)C(=O)Cc1cccnc1
    3 | 4

Only part of the results is shown; the hit share may differ from the screen's.
